T cruzi inh = inhibitors of intracellular T. cruzi growth, primary screen, luminescence, NIH3T3 host cells; T. cruzi beta-gal in NIH3T3, 90 h; inhibition, % (no concentration beside the values); 300,000 tested, 1.4% active; AID 1885, 2009;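 active = mean inhibition across valid replicates above about 55%, limit read from the data; inconclusive = mean below that limit but half or more replicates reach it; inactive = mean below it, under half of replicates reach it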;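 note: signal also drops with host cell toxicity which is not excluded here; 0% = plate median of DMSO wells and 100% = zero luminescence signal; higher percent means less beta-gal luminescence so fewer parasites; stock transfer was 50 nL into about 50 µL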
Vif TR-FRET = inhibitors of Vif binding to APOBEC3G peptide, primary screen, biochemical, TR-FRET, GST-Vif 1-94, biotin-A3G peptide, dose response retest (AID 1117319); TR-FRET GST-Vif / biotin-A3G peptide binding; higher % means a stronger effect; test concentration not given here; strong numbers were not always called active; 260,000 tested, 0.57% active; Virion infectivity factor (Human immunodeficiency virus type 1 group M subtype B (isolate …; inhibition, %, or IC50 in µM where a hit was titrated;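 active = above the screen mean plus three standard deviations and confirmed in dose response; inconclusive = results disagree or hit not tested in dose response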;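 note: Vif residues 1-94 fused to GST binding biotinylated APOBEC3G peptide 110-148; 0% = full assay without inhibitor and 100% = GST in place of GST-Vif; retest series ran down from 100 µM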
Calb FLC = C. albicans growth inhibition with fluconazole, primary screen, CaCi-2 strain, Alamar Blue fluorescence. C. albicans CaCi-2 (fluconazole-resistant clinical isolate) + fluconazole, 48 h. growth inhibition, % (concentration not given with the values). 300,000 tested, 0.57% active;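 active = most replicates above 75%; inconclusive = exactly half above 75%; inactive = most below 75%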;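 note: all wells also contain fluconazole at 8 µg/ml as a sub-toxic cotreatment; 0% = median of DMSO wells and 100% = median of geldanamycin control wells; wells of about 8 µL received 7.5 nL stock; the first replicate is given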
Beta cell apopt = inhibitors of cytokine-induced beta cell apoptosis, primary screen, luminescence; INS-1E cytokine-induced death, ATP luminescence, 48 h; percent of positive-control rescue, neutral wells zero; protection from apoptosis, % (no concentration beside the values); 300,000 tested, 0.8% active;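 active = all replicates at 75% or more, or half of them and the mean; inconclusive = half reach 75% but not the mean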;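 note: 0% = cytokine-treated negative control wells and 100% = positive control rescue; higher means more ATP so stronger rescue from cytokine killing; wells of about 40 µL received 100 nL stock; the first replicate is given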
RanGTP-Imp inh = inhibitors of RanGTP-importin-beta interaction, primary screen, biochemical, FRET, CFP-Ran, YFP-importin-beta, homogeneous | Ran GTPase (GTP-bound) - importin-beta complex | cell-free CFP-Ran/YFP-importin-beta FRET ratio | inhibition, % (concentration not given with the values) | 300,000 tested, 1.1% active | AID 2216, 2009;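 active = most replicates above 15%; inconclusive = exactly half above 15%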;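 note: 0% = DMSO wells and 100% = Ran loaded with GDP instead of GTP; wells of about 40 µL received 100 nL stock; the first replicate is given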
AF4-AF9 inh = inhibitors of AF4 peptide binding to AF9, primary screen, biochemical, AlphaScreen, biotin-AF4 peptide, FLAG-AF9, single point; Protein AF-9 (Homo sapiens), P42568; 350,000 tested, 0.47% active; inhibition, % at 10 µM;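 active = every replicate reaching a set inhibition limit, whatever the replicate mean, cut at about 25% in these data; inconclusive = mean inhibition reaches that limit but some replicates miss it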;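 note: 0% = plate neutral control median and 100% = total signal loss; the record names both 10 and 1 µM as test concentration; the first replicate is given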
Target sequence (P42568 whole entry, looked up): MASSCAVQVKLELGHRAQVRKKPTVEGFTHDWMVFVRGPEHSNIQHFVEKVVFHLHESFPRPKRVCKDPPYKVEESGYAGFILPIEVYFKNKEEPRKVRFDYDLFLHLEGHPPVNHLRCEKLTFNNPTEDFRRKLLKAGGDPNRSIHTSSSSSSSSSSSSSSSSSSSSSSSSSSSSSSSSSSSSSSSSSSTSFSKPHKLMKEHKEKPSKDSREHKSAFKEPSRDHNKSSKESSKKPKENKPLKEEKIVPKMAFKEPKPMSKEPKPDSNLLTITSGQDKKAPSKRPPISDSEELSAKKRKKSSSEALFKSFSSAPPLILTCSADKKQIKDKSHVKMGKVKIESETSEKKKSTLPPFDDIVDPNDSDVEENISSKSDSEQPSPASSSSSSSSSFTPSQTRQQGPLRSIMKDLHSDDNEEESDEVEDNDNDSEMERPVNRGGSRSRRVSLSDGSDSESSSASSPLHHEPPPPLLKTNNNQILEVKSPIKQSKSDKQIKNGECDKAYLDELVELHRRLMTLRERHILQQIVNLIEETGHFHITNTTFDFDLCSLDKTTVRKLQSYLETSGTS
LANA-H2A inh = blockers of LANA interaction with H2A/H2B – biochemical, FP readout, HTS, primary screen. Protein LANA1 (Human herpesvirus 8 type P (isolate GK18)), Q9QR71. cell-free LANA-H2A/H2B peptide, fluorescence polarization. inhibition, % (concentration not given with the values). 320,000 tested, 0.6% active; in the data active = inhibition mostly above about 10%, no sharp cut-off; inactive = mostly below about 6.7%;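 note: stock transfer was 7.5 nL into about 10 µL; 0% = median of vehicle wells and 100% = median of positive control wells; one replicate is shown; the record names a cut of 25% in any replicate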
Bfl-1 A1 inh = caspase 3/7 activation in MEF A1-2A-BIM cells, primary screen, A1 inhibitor project, cell-based, luminescence, HTS; Caspase-Glo 3/7 luminescence, 3 h; percent of clofoctol response, vehicle zero; 330,000 tested, 0.066% active; caspase activation, % (concentration not given with the values);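 active = over half of replicate activation scores above 10%, or exactly half above 10 with the replicate mean above 10; inconclusive = replicate mean below 10 yet half the replicates above 10; inactive = over half of replicates below 10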;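 note: wells of about 30 µL received 50 nL stock; many hits fall short of the cut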
An asterisk follows results filed as active; i = inactive; u = inconclusive; x = no result given; & = joins results of further samples.

SMILES	T cruzi inh	Vif TR-FRET	Calb FLC	Beta cell apopt	RanGTP-Imp inh	AF4-AF9 inh	LANA-H2A inh	Bfl-1 A1 inh
CC(Sc1ccccn1)C(=O)Nc1ccccc1 (stereo not drawn)	2	1%	7	2	-1.3	x	2.1	0.7
CCC1=NN(S(=O)(=O)c2ccc(C)cc2)C(O)(C(F)(F)F)C1 (stereo not drawn)	-20	0%	1	-7	1.7	-1.1	-5.5	0.2
O=C(/C=C/c1ccccc1Cl)NCCc1ccc(F)cc1	5	-13%	1	6	-1.2	-13	-7.1	0.3
Cc1cc2oc(C(=O)N3CCN(CCc4ccccn4)CC3)c(C)c2cc1C	11	32%	-3	-7	0.8	-1.0	2.5	-1.7
O=C(COC(=O)/C=C/c1ccc2c(c1)OCO2)NC1CC1	-6	-11%	u	-13	-0.9	-3.5	3.7	-1.0
COc1ccc(N(CC(=O)Nc2ccccc2C(=O)O)S(=O)(=O)c2ccc(C)c([N+](=O)[O-])c2)cc1	-5	4%	8	x	0.1	0.1	2.9	0.9
COn1c(-c2ccc(Cl)cc2)nc2ccc(Cl)cc21	-18	-1%	6	1	2.7	x	-3.0	-2.2
O=C(CCCOc1ccccc1)N1CCN(S(=O)(=O)c2ccc(Cl)cc2)CC1	-6	3%	-3	x	-0.5	1.7	-1.8	-1.1
Cc1ccc(C)c(N2CC(=O)N(c3cc(C)ccc3C)CC2=O)c1	-17	-3%	-6	4	4.5	x	0.3	0.7
N/C(=N\OC(=O)COc1ccc([N+](=O)[O-])cc1)c1ccc(Br)cc1	-2	-12%	-11	x	0.8	x	x	x
COCCCNC(=O)CSc1nc2ccccc2c(=O)n1CCCC(=O)NCC1CCCO1 (stereo not drawn)	-18	-4%	-4	-8	-3.1	x	4.4	0.5
c1ccc(-c2c(-c3ccccc3)n(Cc3ccco3)c3ncnc(NCCCn4ccnc4)c23)cc1	47	-3%&1%	-27	17	-2.9	x	2.1	-0.4
CC(C)(C)c1ccc(C(=O)Nc2ccc(S(=O)(=O)Nc3cnc4ccccc4n3)cc2)cc1	-2	x	2	0	1.6	-2.0	-6.4	0.2
Cc1ccc(N=C2C(=S)N(c3ccc(C)cc3)C(=N)N2/N=C/c2ccc(Cl)cc2)cc1	-4	5%	-19	-4	1.3	x	4.8	-0.4
O=C(CCn1nnc2ccccc21)Nc1nnc(Cc2ccccc2)s1	-2	-1%	-3	6	1.2	x	-2.9	0.6
O=C(c1ccc(C(F)(F)F)cc1)C1CCCN(C(=O)CN2CCCC2=O)C1 (stereo not drawn)	-4	-3%	4	x	1.9	0.9	1.3	-0.1
Fc1ccc(NC(=S)NCc2ccccn2)cc1	-20	21%	2	1	1.0	x	0.4	0.3
CC(C)(C)C(=O)CSc1ncnc2c1cnn2Cc1ccccc1	25	-6%	6	-1	-5.4	0.1	-4.0	-0.2
O=C(Cc1ccc([N+](=O)[O-])cc1)NCc1ccccc1Cl	11	5%	14	2	1.9	-4.4	3.3	1.1
O=C(COC(=O)c1cc(S(=O)(=O)N2CCOCC2)ccc1F)Nc1ccc2c(c1)OCO2	x	x	x	-5	x	1.9	-2.1	0.4
CN(CCCC1CCCC1)C(=O)c1cc(COc2c(F)cccc2F)on1	13	x	-17	-5	4.6	-2.3	4.9	0.9
O=C1CCCN1C(=O)CSc1ccc2ccccc2n1	x	-4%	x	-3	x	-6.1	-1.0	-0.7
COc1cccc(C(=O)NNC(=O)c2sccc2-n2cccc2)c1	-5	-10%	2	3	-7.2	0.2	-2.6	0.3
Cc1c(CN(C)C(=O)c2nn(C)cc2[N+](=O)[O-])cnn1C	-3	-6%	-1	-8	-0.1	x	-0.9	0.8
Cc1ccnc(N2C(=O)c3ccccc3C2O)c1 (stereo not drawn)	-12	0%	-4	9	0.5	-11	-6.4	-7.4
CCOC(=O)C1(CC)NC(c2ccco2)C2C(=O)N(C)C(=O)C21 (stereo not drawn)	-3	-10%	-5	1	-0.1	x	1.9	-0.1
CCc1nnc(N/N=C/c2c(F)cccc2Cl)n1N	-15	x	4	-7	-4.4	-1.4	-0.1	0.4
COC(=O)c1c(-c2c(Cl)cccc2Cl)noc1C(=O)NN	-10	x	-14	-3	-3.2	-10	1.5	0.2
Cc1cc(C)c2c(-n3cccc3)nn(C)c2n1	x	-7%	-2	-5	2.8	x	-4.5	-0.4
O=C(C[n+]1cccc(Br)c1)c1cccs1	-2	x	-6	-3	4.0	-1.1	0.0	-0.1
CCCCn1c(N)c(N(CC)C(=O)c2cc3c(s2)CCCCC3)c(=O)[nH]c1=O	13	1%	-2	1	4.1	-20	-7.6	-0.3
Cc1occc1C(=O)NNC(=O)c1ccccc1[N+](=O)[O-]	-6	x	-2	-4	0.4	-4.9	-1.0	-0.4
CCN(CC)S(=O)(=O)c1ccc(N2CCCC2)c(C(=O)OCC(=O)/C(C#N)=C(\C)N)c1	8	-3%&-1%	2	0	-7.4	x	1.7	1.3
COc1ccc(CCN2CNc3c(c(=O)n(C)c(=O)n3C)C2)cc1OC	-14	0%	-5	x	4.9	0.2	-1.6	0.5
Cn1c(N)c(C(=O)COC(=O)CNC(=O)c2ccccc2Cl)c(=O)n(C)c1=O	x	-10%	x	-4	x	-2.5	2.5	0.1
O=C(/C=C/c1ccccc1)NCCc1nc2ccccc2[nH]1	9	-10%	0	2	0.7	-0.2	5.2	-0.2
Nc1cc(N)nc(SCC(=O)N2CCN(S(=O)(=O)c3ccccc3)CC2)n1	6	4%	1	-8	4.8	-0.6	-0.4	0.4
Cc1cc(C)cc(NC(=O)CCc2c(C)nn(-c3ccc(N4CCCCC4)nn3)c2C)c1	12	x	10	x	4.7	4.0	-1.3	-4.3
CCOc1ccc(Nc2cc(=O)oc3ccccc23)cc1	-18	-12%	45	x	-5.0	-0.7	-13	1.1
O=c1c(O)c(-c2cc(O)c(O)c(O)c2)oc2cc(O)cc(O)c12	x	x	x	-18	x	-1.8	-3.4	0.2
COc1ccc(-c2nnn(-c3cc(Cl)cc(Cl)c3)c2N)cc1	-10	2%	16	7	6.5	-3.2	-0.3	-1.4
COc1cc(O)c(C(CC(=O)N2CCCCC2)c2ccc3c(c2)OCO3)c(OC)c1 (stereo not drawn)	-12	x	-4	-9	2.6	x	2.8	0.7
CCN(CC(=O)NCc1cccs1)S(=O)(=O)c1ccc(C(C)C)cc1	10	-10%	-22	3	1.0	x	2.6	-0.4
CNC(=O)NC(=O)COC(=O)CCCOc1ccc(OC)cc1	-10	1%	10	-1	0.7	x	0.8	0.0
CCOc1ccc(NC(=O)COC(=O)c2cc([N+](=O)[O-])ccc2N2CCOCC2)cc1	4	-2%	1	-2	3.2	7.4	1.5	-0.2
CCOC(=O)c1ccc(N=c2sc(C(=O)OC)cc(=O)n2Cc2ccc3c(c2)OCO3)cc1	50	-3%	2	-2	1.9	4.7	1.0	x
COC(=O)c1sccc1NC(=S)N1CC(C)CC(C)C1 (stereo not drawn)	-5	-3%	0	-2	1.5	x	-1.1	u
CN(CC(=O)Nc1ccccc1C(F)(F)F)C(=O)CCc1nc2sc3c(c2c(=O)[nH]1)CCCC3	7	x	7	1	-2.8	-2.8	0.6	0.9
COc1ccc(CCC(=O)Nc2cc(Cl)ccc2OC)cc1	14	2%	-16	2	2.3	x	2.0	0.7
CCC(C(=O)NC1CCCCC1)N(CC1CCCO1)C(=O)CNS(=O)(=O)c1ccc(OC)cc1 (stereo not drawn)	6	25%	0	x	2.2	x	x	x
CNC(=O)c1ccc(NC(=O)CC23CC4CC(CC(C4)C2)C3)cc1	1	6%	-12	-7	4.9	2.9	-0.6	-0.2
CC(C(=O)Nc1ccccc1)C(=O)Nc1ccccc1	-8	x	17	-1	4.6	-2.4	0.9	-0.5
COc1ccc(NC(=O)COC(=O)CNC(=O)c2cc(OC)c(OC)c(OC)c2)cc1	-5	-6%	21	3	5.4	x	-0.2	0.2
CCOC(=O)C1CCCN(C(=O)c2cc3c(C)nc4ccccc4c3o2)C1 (stereo not drawn)	0	6%	-11	1	5.4	x	1.9	0.0
CCc1cccc(C)c1NC(=O)CC(C)(C)CC(=O)O	5	2%	0	-10	-1.5	-1.7	-0.7	0.0
CCOc1ccc(N(CC)C(=O)CCS(=O)(=O)c2cccc3nonc23)cc1	-1	1%	14	-2	-0.8	-0.4	-1.3	0.4
C#CCNC(=O)C1=C[C@H](c2csc3ccccc23)C[C@H](OCCCCO)O1	-16	4%	-15	-4	-9.3	-3.0	-5.2	0.6
O=C(CNC1CCCCCC1)Nc1ccccc1N1CCCCC1	6	-3%	-23	x	2.6	x	-5.6	-0.2
Cc1nc(C)c(C(=O)Nc2cccc(F)c2)s1	-7	x	-8	-9	2.2	3.2	0.7	-1.1
Cc1ccc(CNS(=O)(=O)c2cn(C)cn2)cc1	-12	7%	0	0	2.5	-61	-0.7	0.2
The list continues:
SMILES	T cruzi inh	Vif TR-FRET	Calb FLC	Beta cell apopt	RanGTP-Imp inh	AF4-AF9 inh	LANA-H2A inh	Bfl-1 A1 inh
Cc1cc(C)c2c(=O)[nH]c(SCC(=O)N3CCCCC3)nc2n1	-8	11%	0	3	4.7	x	3.0	1.0
Cc1cccc(NC(=O)Cn2cccc2)c1	-14	2%	0	3	u	5.9	-1.1	0.8
S=C(Nc1ccccc1)c1nc2ccccc2s1	13	x	-9	5	u	-4.1	3.1	-4.3
Cc1noc(C)c1C(=O)OC(C)C(=O)N(C)c1ccccc1 (stereo not drawn)	x	x	x	-7	x	-2.6	-4.6	0.7
COCCCn1c(SCC(=O)N(C)C)nnc1-c1ccccc1	-9	u	-26	-6	-0.9	0.6	-1.6	-0.4
Cc1ccc([N+](=O)[O-])c2c1C(N1CC(C)OC(C)C1)C(C)(C)O2 (stereo not drawn)	-6	-8%	4	-5	6.1	2.2	5.0	-0.3
CCOc1ccc(S(=O)(=O)Nc2nc3ccccc3nc2-n2ccc(=NC(=O)c3cccs3)cc2)cc1	-21	i	-23	-1	-48	-0.8	-7.0	0.4
O=C(NC1C(=O)NNC1c1ccccc1)c1ccccc1 (stereo not drawn)	5	0%	1	-5	3.9	x	0.7	0.3
CSCCC(NC(=O)c1ccc(Cl)cc1Cl)C(=O)OC(C)C(=O)NCc1ccco1 (stereo not drawn)	-7	8%	0	-1	5.7	0.5	4.1	0.0
COc1cc(-c2noc(C3CCCN(C(=O)c4c(F)cccc4F)C3)n2)cc(OC)c1OC (stereo not drawn)	6	-8%	-1	-2	1.6	1.8	7.5	0.9
Cc1ccnc(N/N=C/c2ccccc2)n1	-9	1%	11	2	5.5	x	0.3	-6.6
O=C(CN1CCN(Cc2ccccc2)CC1)NCc1ccc(Cl)cc1	13	x	-8	2	-0.1	0.3	-3.6	1.4

Screening results as filed in PubChem.
